Bioassay records as filed in PubChem BioAssay.
NPR1 antag = blocks ANP-stimulated signaling of human Npr1 receptor; P16066; HEK293 hNpr1 GloSensor cGMP, ANP-stimulated luminescence; Potency, µM (highest dose often 46.3 µM), inactives show at the top dose activity change, negative = inhibition, usual class: inhibitors; hit rate 1.6% among 76,000; active = well fitted inhibition curve with a large enough effect; inconclusive = small, poorly fitted or top-dose-only effect; inactive = no such curve, though single readings can be large or run the other way;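 further: nearly all actives have a fitted effect of over 60% in size; nearly all hits also lower the signal before the agonist is added; a reference antagonist and vehicle were the controls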
Target sequence (P16066 whole entry, looked up): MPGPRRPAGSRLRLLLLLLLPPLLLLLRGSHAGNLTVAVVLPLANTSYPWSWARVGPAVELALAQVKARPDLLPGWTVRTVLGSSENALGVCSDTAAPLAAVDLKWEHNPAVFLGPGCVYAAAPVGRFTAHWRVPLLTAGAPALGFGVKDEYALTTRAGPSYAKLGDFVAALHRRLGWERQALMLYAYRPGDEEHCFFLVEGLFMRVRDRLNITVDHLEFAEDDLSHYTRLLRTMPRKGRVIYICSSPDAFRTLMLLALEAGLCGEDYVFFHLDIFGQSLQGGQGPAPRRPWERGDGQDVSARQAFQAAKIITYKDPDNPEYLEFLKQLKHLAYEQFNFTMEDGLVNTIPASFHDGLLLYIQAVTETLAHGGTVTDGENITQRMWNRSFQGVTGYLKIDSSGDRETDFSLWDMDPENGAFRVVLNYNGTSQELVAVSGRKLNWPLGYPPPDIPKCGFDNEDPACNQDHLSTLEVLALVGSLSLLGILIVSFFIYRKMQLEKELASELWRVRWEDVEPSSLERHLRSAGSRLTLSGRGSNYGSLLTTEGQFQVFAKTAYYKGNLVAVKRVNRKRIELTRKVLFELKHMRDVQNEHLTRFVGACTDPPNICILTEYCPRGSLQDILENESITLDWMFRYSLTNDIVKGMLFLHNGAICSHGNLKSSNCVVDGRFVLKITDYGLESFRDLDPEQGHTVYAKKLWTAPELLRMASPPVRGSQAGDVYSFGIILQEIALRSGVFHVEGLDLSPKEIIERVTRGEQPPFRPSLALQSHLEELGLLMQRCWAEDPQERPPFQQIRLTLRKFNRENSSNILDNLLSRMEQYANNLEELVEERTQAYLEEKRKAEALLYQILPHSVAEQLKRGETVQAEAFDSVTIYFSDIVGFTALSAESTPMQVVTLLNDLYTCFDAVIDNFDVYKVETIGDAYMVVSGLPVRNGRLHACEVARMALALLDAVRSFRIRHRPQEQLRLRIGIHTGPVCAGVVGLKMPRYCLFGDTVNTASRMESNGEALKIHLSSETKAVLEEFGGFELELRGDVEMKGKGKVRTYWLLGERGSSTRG
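HEK293 cells stably expressing human Npr1 and cGMP GloSensor pGS-40F, loaded 2 h with 2% GloSensor reagent, given compound 30 min at room temperature. Luminescence read before and 20 min after 0.1 nM hNppA.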
* marks the source's active call; other numbers are inactive results; ? = inconclusive; & = joins results of further samples; [ ] = dose if it differs, or a comment. On the % scale 0 is the no-effect control and ±100 the full control effect; potency means the concentration at half of the fitted maximal effect.

Start of the data: the first 5 compounds, to show the layout:
NPR1 antag | compound
-5%[70.6 µM] | CC1(COc2ccccc2)COc2ccc(C(=O)NCCc3ccccc3)cc2N1 (centres undefined)
-8%[70.6 µM] | O=C(Cc1c[nH]c2ncc(-c3cccnc3)cc12)N1CCN(c2ccccn2)CC1
4% | O=C1NCCCCCCN[C@H]2C[C@H](C(=O)N3CCN(c4ccccn4)CC3)C[C@@H]12
-15% | CCc1cccc(NC(=O)C2Cn3cccc3C(=O)N2)c1 (centres undefined)
9% | CN(C)C[C@@H]1CN(S(C)(=O)=O)C[C@H]1NC(=O)c1cncn1C

All compounds of this part, from the first entry:
NPR1 antag | compound
-5%[70.6 µM] | CC1(COc2ccccc2)COc2ccc(C(=O)NCCc3ccccc3)cc2N1 (centres undefined)
-8%[70.6 µM] | O=C(Cc1c[nH]c2ncc(-c3cccnc3)cc12)N1CCN(c2ccccn2)CC1
4% | O=C1NCCCCCCN[C@H]2C[C@H](C(=O)N3CCN(c4ccccn4)CC3)C[C@@H]12
-15% | CCc1cccc(NC(=O)C2Cn3cccc3C(=O)N2)c1 (centres undefined)
9% | CN(C)C[C@@H]1CN(S(C)(=O)=O)C[C@H]1NC(=O)c1cncn1C
3% | COCCOCC(=O)N1CCCCCCNC(=O)[C@@H]2CCCC[C@@H]21
0% | O=C(CN1C(=O)NC2(CCCCC2)C1=O)NCc1ccc2c(c1)OCO2
? | COc1cccc(-c2nc3c([nH]2)CN(c2cc(C4CC4)ncn2)CC3)c1
7% | Cn1nccc1C(=O)N1CCCC(c2nnnn2C)C1 (centres undefined)
-3% | Cc1ccc(-c2cn(CC3CCCN(c4cc(C)nc(N)n4)C3)nn2)cc1 (centres undefined)
1% | CN(C)C(=O)CNC(=O)c1cccc(S(=O)(=O)NCC2CCOC2)c1 (centres undefined)
-1% | O=C(CN1C(=O)NC2(CCCCC2)C1=O)Nc1cccc(Br)c1
0% | COc1ccc(-c2noc(-c3cccn3CC(=O)Nc3cccc(C#N)c3)n2)cc1F
-1%[70.6 µM] | C=CCNC(=O)N[C@H]1[C@H](O)[C@@H](N2CCCCC2)[C@@H]2OC[C@H]1O2
9%[70.6 µM] | COCCOc1ccnc(-c2noc([C@@H]3CCCN3CC(C)(C)C)n2)c1
1%[70.6 µM] | COCCOc1ccnc(-c2noc([C@@H]3CCCN3Cc3ccc(Cl)cc3)n2)c1
? | Cc1ccc(CN2C(=O)NC3(CCN(C(=O)c4cccc(Cl)c4)C3)C2=O)cc1 (centres undefined)
1% | O=C(Nc1cc(F)cc(F)c1)N1CCC(Oc2ncccc2C(=O)N2CCOCC2)C1 (centres undefined)
-6% | O=C(O)CCc1ccnc(N2CCCC2)c1
8% | O=C(O)CC1COCCN1C(=O)c1cc(-n2cccn2)ccc1Cl (centres undefined)
14% | C[C@@H]1CN(C(=O)CCN2CCCCCC2=O)C[C@]1(C)O
8% | CN1C[C@H](O)C[C@H]1c1nnc2n1CCN(Cc1ccc(C(F)(F)F)cc1)C2
3% | CCN1C(=O)CCN(C(=O)C2CCCC2)CC12CCOCC2
2%[70.6 µM] | Cc1noc([C@@H]2C[C@H](NS(=O)(=O)c3cccc4cccnc34)CN2C)n1
? | COc1cccc(-c2noc(-c3ccc(NCCn4cccn4)nc3)n2)c1OC
-20% | O=C(NCCCc1ccccc1)c1n[nH]c2c1CN(C(=O)c1ccc(Cl)cc1)CC2
-1%[70.6 µM] | CC[C@H]1CN(C(C)=O)CC[C@H]1CC(=O)Nc1ccccc1
-13% | CCc1nc2cc(N3CCC(C(=O)N4CCN(C)CC4)CC3)cnc2nc1CC
0% | COc1ccc(CNC(=O)C2CCN(C(=O)C3CN(c4ccc(OC)cc4)C(=O)N3)C2)cc1 (centres undefined)
8% | Cc1ccc(S(=O)(=O)N2CCC(C(NC(=O)c3ccccc3)C(=O)NCC(C)C)CC2)cc1 (centres undefined)

Part of the list above in a different format.
molecule: O=C(Cc1c[nH]c2ncc(-c3cccnc3)cc12)N1CCN(c2ccccn2)CC1
- NPR1 antag = -8%[70.6 µM]

molecule: O=C1NCCCCCCN[C@H]2C[C@H](C(=O)N3CCN(c4ccccn4)CC3)C[C@@H]12
- NPR1 antag = 4%

molecule: CCc1cccc(NC(=O)C2Cn3cccc3C(=O)N2)c1 (centres undefined)
- NPR1 antag = -15%

More structures
NPR1 antag | compound
-12% | COc1ccc(N2Cc3c(NCc4ccc(F)cc4)ncnc3N(C)CC2=O)cc1
0% | CC(C)Oc1ccc(CNC(=O)C2Cn3cccc3C(=O)N2)cc1 (centres undefined)
3% | COc1ccc(C)cc1NC(=O)CCC[C@@H]1[C@H]2CCCN3CCC[C@@H](CN1Cc1cccnc1)[C@@H]23
-2%&-9% | COc1ccc(-n2nc(C3CCN(C(=O)c4ccc(F)cc4)CC3)[nH]c2=O)cc1
-3%[70.6 µM] | Cc1noc2c(Nc3ccc(C(N)=O)cc3)cc(-c3ccsc3)nc12
0% | O=C([C@@H]1C[C@H](F)CN1C(=O)c1cccc(F)c1)N1CCOCC1
2%[70.6 µM] | COc1ccccc1CN1C[C@@H]2C[C@H]1C(=O)Nc1ccccc1O2
-1% | O=C(c1cnc2c(c1)N(C(=O)CCc1ccccc1)CCC2)N1CCN(Cc2ccccc2)CC1
12%[70.6 µM] | O=c1[nH]ccn1C1CCN(Cc2ccccc2)CC1
10% | Cc1ncoc1C(=O)N1C[C@H]2OC(=O)N(CCc3cccc(Cl)c3)[C@H]2C1
3% | COC1C(=O)N(C2CCNCC2)C12CCOCC2 (centres undefined)
10µM* | Cc1ccc(N2CCN(C(=O)C3CCCN(c4cnn(Cc5ccccc5)c(=O)c4)C3)CC2)cc1 (centres undefined)
6% | COc1ccc(NC(=O)O[C@@H]2CC[C@]3(C)C(CC[C@@H](O)[C@H]3CC(=O)N3CCC[C@H]3CO)[C@]2(C)CO)cc1 (some centres undefined)
? | CN(Cc1ccc(-c2ccccc2)cc1)C(=O)Nc1ccccc1
6% | CCCCS(=O)(=O)N1CCC(c2nnc(Cn3cncn3)n2C)CC1
11% | CCCC(C)N1CC2(CCN(C(=O)c3c(CC)noc3C)CC2)OC1=O (centres undefined)
4% | CCN(CC)C(=O)CC1Sc2ncccc2N(CC(C)C)C1=O (centres undefined)
-2% | CN(C)CCNC(=O)CCC[C@@H]1[C@H]2CCCN3CCC[C@@H](CN1C)[C@@H]23
-4% | CCCNc1cc(N2CCC(CCC(=O)NCc3ccccc3)CC2)ncn1
-2% | CCn1ncc(N2CCCC(CC(=O)N3CCSCC3)C2)cc1=O (centres undefined)
-1% | c1ccc(-c2nc(C3CCNC3)no2)nc1 (centres undefined)
24%[70.6 µM] | CN(Cc1cccc2ccccc12)C1CCOc2ccccc21 (centres undefined)
-4%[70.6 µM] | COc1cccc(N2CC3(COCC2=O)CN(c2ccc(C(F)(F)F)cn2)C3)c1
-24% | CCc1ccc(S(=O)(=O)N2CCCC(Cn3cnc4cccnc43)C2)cc1 (centres undefined)
3% | Cc1noc(C)c1C(=O)N1C[C@@H](CO)[C@H](c2ccccn2)C1
-2% | CN(CC1CCOC1)C(=O)Nc1cccc(Cl)c1 (centres undefined)
-22%[70.6 µM] | Cc1ccccc1NCc1nc2c(n1Cc1ccccc1)C(=O)N(C)CCN2
-2% | COCC(=O)Nc1ccc2c(c1)CN(Cc1ccc(Cl)cc1)C(=O)C(C)O2 (centres undefined)
4% | COC1CCN(S(=O)(=O)N2CCC3(CCCN(C(C)C)C3=O)C2)CC1 (centres undefined)
4% | CCc1ccc(CNC(=O)C2CCN(C(=O)c3ncn4c3COC(c3ccccc3)C4)CC2)cc1 (centres undefined)
-10% | CCOC(=O)c1ccccc1NC(=O)Cn1c(N(C)Cc2ccccc2)nc(C)cc1=O
-2% | CN(CC1CCOC1)C(=O)c1cc(Cl)ccc1F (centres undefined)
16% | C[C@]1(O)CCN(C(=O)c2ccc3c(c2)OCC(=O)N3)C[C@@H]1O
0% | Cc1noc(-c2cn(C3CCN(C(=O)c4cccc(C#N)c4)CC3)nn2)n1
-1% | CCc1ccc(S(=O)(=O)N2CCC(OC3CCN(Cc4ccccc4)CC3)CC2)cc1
0% | CCc1nc2c(=O)n(CC(=O)NCc3cccnc3)nc(C)c2s1
2%&0%[70.6 µM] | COC(=O)NC1CCN(c2nc3ncccc3o2)CC1
2%[70.6 µM] | O[C@@H]1C[C@@H](c2nc(-c3ccc(F)cc3)no2)N(Cc2ncc[nH]2)C1
1% | O=C(NC1CCN(c2cc(-c3cccs3)[nH]n2)CC1)c1ccc(F)cc1F
-2% | Cc1ccc(C(=O)N2CCC3(CC2)NC(=O)N(Cc2ccccc2)C3=O)cc1
-12% | CCOc1ccc(NC(=O)N2CCC(Oc3ncccc3C(=O)N3CCOCC3)C2)cc1 (centres undefined)
-6% | COc1ccc(CNC(=O)c2cc3n(n2)CC(c2ccc4c(c2)OCO4)OC3)c(OC)c1 (centres undefined)
-2% | Cn1cc(C2c3nccn3CCCN2C(=O)c2cccn2C)cn1 (centres undefined)
-19% | Cc1nccc(N2CCN(C(=O)N3CCOCC3)CC(C(=O)O)C2)n1 (centres undefined)
0% | COc1ccc(NC(=O)Cn2nc3c(cc2=O)CCCC3)cn1
-16%[70.6 µM] | O=C1COc2ccc(-c3ccccc3)nc2CN1Cc1ccccc1
-15% | CCc1cc(=O)n(CC(=O)Nc2cc(OC)ccc2OC)c(-c2ccccc2)n1
0% | Cc1nc2scc(CC(=O)NC(C)C(C)C)n2c(=O)c1-c1cc(C)n(-c2ccccc2F)n1 (centres undefined)
-1% | CCc1cccc2c(C(CC(=O)NCC(C)C)c3cccc([N+](=O)[O-])c3)c[nH]c12 (centres undefined)
-4% | Cc1nc(CN2CCN(CC3(O)CNCCOC3)CC2)cs1 (centres undefined)
2% | O=C([C@@H]1C[C@H](Oc2cccnc2)CN1C(=O)c1ccccn1)N1CCCC1
-2% | COc1cccc(C(=O)N2CCC3(CC2)N=C(c2cccc(Br)c2)NO3)c1
? | CCN(CC)C(=O)c1csc(-c2cccc(OC(C)C)c2)n1
6%[70.6 µM] | CC(C)CS(=O)(=O)N[C@@H]1C[C@H](Cn2cc(CN(C)C)nn2)[C@@H](O)[C@H]1O
-22%[70.6 µM] | O[C@H]1CC[C@@H](Cc2cc(-c3ccccc3)on2)O[C@@H]1CNC1CCCCC1
1% | COc1ccc(CNC(=O)N(C)C2CCc3nn(CC4CC4)c(=O)n3CC2)cc1 (centres undefined)
-3% | CNc1nc(C(=O)N2CCC(c3nccn3Cc3ccncc3)CC2)cs1
-3% | CC(C)n1ccnc1CN1CCC2(CCCO2)CCC1=O (centres undefined)
10% | CCc1nc2c(c(-c3ccc(Cl)cc3)n1)CN([S+](=O)([O-])c1cccc(C(F)(F)F)c1)CC2
-30%[70.6 µM] | CN(c1ccccc1)c1ccc2c(n1)CN(CC(=O)N1CCCC1)C(=O)CO2

Other records
NPR1 antag | compound
4%[70.6 µM] | CC1(C(=O)NCc2cnccn2)CCc2cnc(Nc3ccccc3)nc21 (centres undefined)
-5%[70.6 µM] | CC(C)(C)c1cc(C[C@H]2CNCC[C@H]2CC(=O)NC2CCCCC2)no1
-2% | CCOc1ccccc1CN1C[C@@H](CO)[C@H](NC(=O)c2cccnc2)C1
3%[70.6 µM] | CC(C)CCN1CCc2c(n(Cc3cccnc3)n(-c3ccccc3)c2=O)C1
1% | COC(=O)c1ccc(NC(=O)Cn2nc3c(cc2=O)CN(C(C)=O)CC3)cc1
7% | COCc1nc(C2CCN(C(=O)c3ccco3)C2)no1 (centres undefined)
-4% | COc1ccc(C(=O)NC2CCN(C(=O)N3CC4CC(C3)[C@H]3CCCC(=O)N3C4)CC2)c(OC)c1 (some centres undefined)
-2% | O=C(c1cc(C2CC2)[nH]n1)N1CC(F)(F)C[C@H]1c1nc(C2CC2)no1
-17% | Cc1ccc(C)c(-c2cc3c(=O)n(CCNC(=O)Cc4ccsc4)ccn3n2)c1
-3% | O=C(NC1CC1)[C@@H]1C[C@H](Oc2cccnc2)CN1C(=O)c1nccc2ccccc12
5% | COc1ccc(-c2cc(N3CCCN(C(=O)c4ccco4)CC3)n[nH]2)cc1
6% | CN(Cc1ccccc1)Cc1cn([C@H]2CO[C@H]3[C@@H]2OC[C@@H]3NCc2ccc(N(C)C)cc2)nn1
2% | CC(C)c1cc(C(=O)N[C@@H]2COCC[C@@H]2OCc2cscn2)cs1
2% | Cc1cnc(C(=O)N2C[C@@H](COc3ccccc3)[C@H](C(N)=O)C2)cn1
-6%[70.6 µM] | O=C1OC[C@@H]2CCN(CC3CCCCC3)Cc3ccc(F)cc3N12
7% | CN(C)C(=O)c1cccc2c1CCN2C(=O)c1ccc(F)cc1
-2% | COc1ccccc1N1CCN(C2CCCN(C3CCN(Cc4ccccc4)CC3)C2)CC1 (centres undefined)
-1% | CCC(=O)N(C1CCOCC1)C1CCN(S(=O)(=O)c2ccc(C)cc2C)CC1
-10% | COCCN1C(=O)c2ccccc2C(C(=O)Nc2nc3c(s2)CCC3)C12CCCC2 (centres undefined)
0% | O=C(CC1CCOC2(CCN(Cc3ccsc3)CC2)C1)N1CCCC1 (centres undefined)
0%[70.6 µM] | CC(=O)Nc1ccc(CN2C3CCC2CN(C(C)C)C3)cc1
-7% | Cc1cc(C)cc(C(=O)NC(Cc2ccccc2)C(=O)N2CCN(c3ccccn3)CC2)c1 (centres undefined)
2% | c1cncc(CN2CCCCC2c2nc(CCOCC3CCOCC3)no2)c1 (centres undefined)
4% | CCn1nccc1C(=O)N1CCOc2ccc(CCC(N)=O)cc2C1

For convenience, 2 of the compounds above.
NPR1 antag | compound
2% | c1cncc(CN2CCCCC2c2nc(CCOCC3CCOCC3)no2)c1 (centres undefined)
4% | CCn1nccc1C(=O)N1CCOc2ccc(CCC(N)=O)cc2C1

Some of the compounds tested. The share of hits here may be higher or lower than overall.
